Compound activity (PubChem BioAssay)
GLA inh pH 4.5: qHTS Assay for Inhibitors of Human alpha-Galactosidase at pH 4.5 | 230,000 tested, under 10 active | activity change, negative = inhibition, % at 105 µM | purified enzyme, 4-MU-alpha-Gal fluorescence, pH 4.5; inconclusive = small, poorly fitted or top-dose-only inhibition, or a rising curve; inactive = flat fitted curve, though single readings scatter; no compound was filed as active;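 note: 0% = full activity with enzyme and -100% = basal without enzyme; dose as in the result columns while the protocol names 77 µM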
Target sequence (P06280 whole entry, looked up): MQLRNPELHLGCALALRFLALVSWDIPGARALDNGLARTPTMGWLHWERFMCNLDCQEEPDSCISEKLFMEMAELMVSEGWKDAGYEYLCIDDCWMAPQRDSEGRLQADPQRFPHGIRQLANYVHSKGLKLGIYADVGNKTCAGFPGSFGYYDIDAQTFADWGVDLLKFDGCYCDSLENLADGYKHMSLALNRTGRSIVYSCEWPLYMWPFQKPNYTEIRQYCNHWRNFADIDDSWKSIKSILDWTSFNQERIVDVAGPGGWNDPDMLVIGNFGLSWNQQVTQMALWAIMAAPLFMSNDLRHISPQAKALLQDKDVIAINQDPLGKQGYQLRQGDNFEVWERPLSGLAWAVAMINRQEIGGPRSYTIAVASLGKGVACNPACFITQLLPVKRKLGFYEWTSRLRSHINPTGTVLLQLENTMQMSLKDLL
* = called active by the depositor; ? = inconclusive; & = joins results of further samples. A portion of the library; the hit share may differ from the screen's.

SMILES | GLA inh pH 4.5
COc1ccc2c(c1)c(CC(=O)O)c(C)n2Cc1ccc(F)cc1 | -2.0
CC#CCN1c2ccccc2[C@]23C[C@@H](C(=O)OC)N(C(=O)CC(C)C)C2=NC(C(=O)OC)=C(C(=O)OC)[C@H]13 | 6.4
O=C(O)[C@@H](O)[C@@H](O)[C@@H](O[C@H]1O[C@@H](CO)[C@@H](O)[C@@H](O)[C@@H]1O)[C@@H](O)CO | 3.1
CC[C@H]1C2=C3C(CC[C@H]4C(OCc5ccc(F)cc5C(F)(F)F)OC[C@](C)([C@@H]34)N(C(=O)OC(C)(C)C)C2)C2COC(=O)OCC21 (some centres undefined) | -4.9
N#Cc1ccccc1-c1cncnc1NCc1cccnc1 | 7.8
COc1cc2c(cc1OC)-c1cc3nc4ccccc4nc3n1C(C)(C)C2 | ?
CCCC[C@H]1C[C@@H]1[C@@H]1N(P(=O)(c2ccccc2)c2ccccc2)[C@](CO)(c2ccccc2)CC12CC2 | -14.0
CC(C)CN(C)c1nc(N)c(C(=O)N=C(N)N)nc1Cl | -6.7
CC(C)C[C@H]1COC(c2ccc(Br)cc2)=N1 | 2.1
O=C(O)c1c2ccccc2cc2ccccc12 | 10.3&5.9
O=S(=O)(CCc1ccccc1)c1nnnn1-c1ccc(F)cc1Br | -10.4
OCc1ccccc1O[C@H]1OC(CO)C(O)C(O)C1O (some centres undefined) | 3.8
C=C1CC[C@H](O)C/C1=C/C=C1\CCC[C@]2(C)[C@@H]([C@H](C)CCCC(C)C)CC[C@@H]12 | -25.2
COC(=O)C1=C(C(=O)OC)[C@@H]2Nc3ccccc3[C@@]23C[C@@H](C(=O)OC)N(S(=O)(=O)c2ccc(C#N)cc2)C3=N1 | 8.5
C[C@@H]1OC(OC2C(OC3CC[C@@]4(C)C5CC=C6C7CC(C)(C)CC[C@@]7(C(=O)O)CCC6(C)C5(C)CCC4[C@]3(C)CO)OCC(O)C2O)C(O)C(O)C1O (some centres undefined) | 3.4
COc1cc2c(cc1OC)C(/C=C/c1ccc(OC)c(OC)c1OC)=NCC2 | 4.1
CC(C)=CCC1=C(O)[C@](O)(CC=C(C)C)C(=O)C(C(=O)CC(C)C)=C1O | -8.1
CNC(=O)C1(CC(C)C)C=CCN1C(=O)c1ccccc1 (centres undefined) | 3.8
NC(CCC(=O)NC(CCSC(CC(=O)O)C(=O)O)C(=O)NCC(=O)O)C(=O)O (centres undefined) | 8.9
COc1cccc2c1C(=O)CC(c1ccccc1)O2 (centres undefined) | 1.2
[O][C@H]1[C@@H](O)[C@@H](CO)O[C@@H](O[C@@H]2[C@@H]3OC[C@H]2O[C@H](O[C@@H]2[C@@H](O)[C@H](C[C@@H]4[C@@H]5OC[C@H]4O[CH][C@@H]5O)O[C@H](CO)[C@@H]2OS(=O)(=O)O)[C@@H]3OS(=O)(=O)O)[C@@H]1O | -8.5
N#C/C(=C\c1ccc(O)c(O)c1)C(N)=O | -7.5
CNc1ccnc(-c2ccccc2CN(C)C)n1 | 0.7
C=C(CC1([C@@H](NP(=O)(c2ccccc2)c2ccccc2)[C@H]2C[C@@H]2CCN(C(=O)OCC)S(=O)(=O)c2ccc(C)cc2)CC1)c1ccccc1 | -4.3
COc1ccc(-c2cc(=O)c3ccccc3o2)cc1OC | 13.0

Taken from above (6 entries):
SMILES | GLA inh pH 4.5
COc1cccc2c1C(=O)CC(c1ccccc1)O2 (centres undefined) | 1.2
[O][C@H]1[C@@H](O)[C@@H](CO)O[C@@H](O[C@@H]2[C@@H]3OC[C@H]2O[C@H](O[C@@H]2[C@@H](O)[C@H](C[C@@H]4[C@@H]5OC[C@H]4O[CH][C@@H]5O)O[C@H](CO)[C@@H]2OS(=O)(=O)O)[C@@H]3OS(=O)(=O)O)[C@@H]1O | -8.5
N#C/C(=C\c1ccc(O)c(O)c1)C(N)=O | -7.5
CNc1ccnc(-c2ccccc2CN(C)C)n1 | 0.7
C=C(CC1([C@@H](NP(=O)(c2ccccc2)c2ccccc2)[C@H]2C[C@@H]2CCN(C(=O)OCC)S(=O)(=O)c2ccc(C)cc2)CC1)c1ccccc1 | -4.3
COc1ccc(-c2cc(=O)c3ccccc3o2)cc1OC | 13.0

New compounds follow:
SMILES | GLA inh pH 4.5
COC1C=CO[C@@]2(C)Oc3c(C)c(O)c4c(O)c(c5c(nc6cc(C)ccn65)c4c3C2=O)NC(=O)/C(C)=C\C=CC(C)C(O)[C@@H](C)C(O)C(C)[C@@H](OC(C)=O)C1C (some centres undefined) | -2.4
COc1cc(/C=C\c2ccc(OC)cc2OC)cc(OC)c1 | 7.4
CC(=O)OCC1OC(Oc2cc(OC(C)=O)c3c(=O)cc(-c4ccc(OC(C)=O)c(OC(C)=O)c4)oc3c2)C(OC(C)=O)C(OC(C)=O)C1OC(C)=O (centres undefined) | -24.2
CCCCCCCNS(=O)(=O)c1cccc2c(Cl)cccc12 | -9.8
O=C(NCCCN1CCCCCC1)[C@@H](c1ccccc1)C1CCCCC1 | 0.0
COc1cc2nc3c(c([Si](C)(C)C(C)(C)C)c2cc1OC)Cn1c-3cccc1=O | ?
CCCCCCN(C(=O)CCCCCN1C(=O)NC(c2ccccc2-c2ccccc2)C(C(=O)OCc2ccccc2)=C1C)C(C(=O)NCCCC)c1ccc(OCC(=O)OC)c(C(=O)OC)c1 (centres undefined) | ?
Cn1c(-c2nc(-c3ccccc3)cs2)nc2ccccc21 | -5.1
COC1(C)CCC2OC2(C)CCC2C1CC2(C)C (centres undefined) | -4.7
O=C1C=CC2=C3c4cc(O)c(O)cc4C[C@]3(O)COC2=C1 | 6.8
CC(=O)N[C@H](CC(C)C)C(=O)O | 0.8
CO[C@]12CC(COC(=O)c3cncc(Br)c3)CN(C)[C@@H]1Cc1cn(C)c3cccc2c13 (some centres undefined) | -5.4
CCNC(=O)[C@H](C)/C=C/C(NC(=O)OCc1ccccc1)c1ccc(C(=O)OC)cc1 (some centres undefined) | -7.6
CCC1=C2CC[C@H]3C(=O)NC(=O)[C@H]3[C@H]2[C@@]2(C)C(=NCCOC)OC(=O)N2C1=O | 1.6
CCCCOC(=O)c1cc2c(cn1)[nH]c1ccccc12 | -12.0
COC(=O)NC(c1ccccc1)c1c[nH]c2ccc(OC)cc12 (centres undefined) | 2.4
CCCc1cc(OC)c2c(c1)OCO2 | 10.0
COC(=O)c1ccc(C(NC(=O)OCc2ccccc2)/C(=C/[C@@H](C)C(=O)NCCF)c2cccnc2)cc1 (some centres undefined) | -2.8
CCCCC/C=C\C/C=C\C/C=C\CCCCCCC(=O)O[C@H](COCCCCCCCCCCCCCCCC)COP(=O)([O-])OCC[N+](C)(C)C | -7.8
COc1cccc(-c2ccc3ncnc(NCc4ccccc4OC)c3c2)c1 | 3.9
C=C1C[C@]23C[C@@]1(O)CC[C@H]2[C@@]12C=C[C@H](O)C(C)(C(=O)O1)[C@H]2[C@@H]3CC(=O)O | -1.8
CC[C@H](C)C(=O)O[C@H]1CCC=C2C=C[C@H](C)[C@H](CC[C@@H]3C[C@H](O)CC(=O)O3)[C@H]21 | -26.6
CCCCC1=CC2=CC(=O)C(C)(OC(=O)c3ccco3)C(=O)C2=CO1 (centres undefined) | 2.2
CC(C)(CS)C(=O)N1CCC[C@H]1C(=O)O | 0.0
COC1=C(OC)C(=O)C(C/C=C(\C)CC/C=C(\C)CC/C=C(\C)CC/C=C(\C)CC/C=C(\C)CC/C=C(\C)CC/C=C(\C)CC/C=C(\C)CC/C=C(\C)CCC=C(C)C)=C(C)C1=O | 1.2

Other compounds
SMILES | GLA inh pH 4.5
N[C@@H](Cn1cc(I)c(=O)n(Cc2ccc(C(=O)O)cc2)c1=O)C(=O)O | -4.0
CCCCC1=CC2=CC(=O)C(C)(O)C(=O)C2=CO1 (centres undefined) | 0.3
CC(C)c1cccc2cc3c(nc12)-c1cccc(=O)n1C3 | ?
CNc1ncnc2ccc(-c3ccccc3OC)cc12 | -20.9
c1cc2c3c(c1)c1c(n3CCNC2)CCCC1 | -6.7
CC1(OC(=O)C2CCCC2)C(=O)C=C2C=C(c3ccsc3)N(c3ccc(CO)cc3)C=C2C1=O (centres undefined) | -3.8
CC(C)C[C@@H](CC(=O)N[C@@H](CCC(=O)O)CC(=O)O)NC(=O)[C@@H]1CNCC[C@H]1NC(=O)C[C@@H](NC(=O)C[C@H](Cc1c[nH]c2ccccc12)NC(=O)[C@@H]1CCCC[C@H]1N)C(C)C | -2.9
COc1cccc([C@@H]2Oc3ccc(OC)cc3C(=O)[C@H]2OC(=O)NS(=O)(=O)c2ccc(C)cc2)c1 | -2.6
CC(=O)N[C@@H](C=O)[C@@H](O)[C@H](O)[C@H](O)CO | -11.6
CC1C(=O)N(C)C(=O)c2nc[nH]c21 (centres undefined) | 5.5
OC1c2ccccc2-c2nc3ccccc3cc21 (centres undefined) | -3.5
CCCCCCCCC(=O)NCc1cc(OC)c(O)cc1I | -11.1
Cc1ccc(CNC(=O)C2(CC(C)C)C=CCN2C(=O)c2ccccc2)o1 (centres undefined) | -2.5
Brc1ccc(C2=NCCC(c3ccccc3)O2)cc1 (centres undefined) | -0.1
CC(=O)N(CC(O)CN(C(C)=O)c1c(I)c(C(=O)NC[C@@H](O)CO)c(I)c(C(=O)NC[C@@H](O)CO)c1I)c1c(I)c(C(=O)NC[C@@H](O)CO)c(I)c(C(=O)NC[C@@H](O)CO)c1I | -4.0
Nc1nc2c(ncn2C2OC(COC(=O)c3ccccc3)C(OC(=O)c3ccccc3)C2OC(=O)c2ccccc2)c(=O)[nH]1 (centres undefined) | -3.6
NCCC[C@@H](CC(=O)N[C@@H]1CCNC[C@H]1C(=O)N[C@H](CC(=O)N[C@@H](CCC(=O)O)CC(=O)O)Cc1ccccc1)NC(=O)C[C@H](CO)NC(=O)[C@@H]1CNCC[C@H]1N | -8.8
Cc1noc(C)c1-c1cc(NCc2ccccc2)ncn1 | 1.7
COc1ccc2c(c1)O[C@H](c1ccc3c(c1)OCO3)[C@@H](OC(=O)NS(=O)(=O)c1ccc(C)cc1)C2=O | 2.1
N[C@@H](C(=O)O)c1cc(O)ccc1Cl | -7.1
O=C(O)[C@@H]1C[C@H](C(=O)O)N1 | 5.0
S=C(Nc1ccccc1)Nc1ccccc1C#Cc1ccccc1 | -4.9
C[C@@H](C1=C(CCN(C)C)Cc2ccccc21)c1ccccn1 | -1.6
COc1ccccc1/C=C\C(=O)OC[C@@H]1CCCN2CCCC[C@H]12 | -10.6
N#CC(=C(/N)Sc1ccccc1N)/C(C#N)=C(/N)Sc1ccccc1N | -1.8

Following part.
SMILES | GLA inh pH 4.5
CC1(C)SC2C(NC(=O)Cc3ccccc3)C(=O)N2C1C(=O)O (centres undefined) | 6.4
O=c1cc(-c2cc(O)c(O)c(O)c2)oc2cc(O)cc(O)c12 | -12.2
COC(=O)C1=C(C(=O)OC)[C@@H]2Nc3ccccc3[C@@]23C[C@@H](C(=O)OC)N(S(=O)(=O)c2ccc(OC)cc2)C3=N1 | 3.0
CCCCS(=O)(=O)N1CCc2nc(COc3ccccc3)c3c(c2C1)CO[C@@H](C)C3 | 10.1
CO[C@H]1C[C@@H]2CC[C@@H](C)[C@@](O)(O2)C(=O)C(=O)N2CCCC[C@H]2C(=O)OC([C@H](C)C[C@@H]2CC[C@@H](O)[C@H](OC)C2)CC(=O)[C@H](C)/C=C(\C)[C@@H](O)[C@@H](OC)C(=O)[C@H](C)C[C@H](C)/C=C/C=C/C=C/1C (some centres undefined) | -9.4
CC[C@](C)(CN(C)C)OC(=O)c1ccccc1 | -14.1
CCC#CCOCC(=O)Nc1ccccc1 | -11.1

Reprinted at random: 3 compounds from above, in no set order.
SMILES | GLA inh pH 4.5
CCC#CCOCC(=O)Nc1ccccc1 | -11.1
CC1(C)SC2C(NC(=O)Cc3ccccc3)C(=O)N2C1C(=O)O (centres undefined) | 6.4
CC[C@](C)(CN(C)C)OC(=O)c1ccccc1 | -14.1
